Screening data: PubChem, National Center for Advancing Translational Sciences (NCATS)
Cruzain inh noDet – blocks cruzain activity in detergent-free assay; purified cruzain, Z-FR-AMC fluorescence, no detergent; P25779; Potency, µM, inactives show max response, negative = inhibition, hits mostly inhibitors; hit rate 2.3% among 200,000;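 also: plate controls were enzyme without inhibitor for no effect and buffer without enzyme for full effect; nearly all actives have a fitted effect of over 40% in size; top concentration of the series not given in the record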
Target sequence (P25779 123-467 limits assumed): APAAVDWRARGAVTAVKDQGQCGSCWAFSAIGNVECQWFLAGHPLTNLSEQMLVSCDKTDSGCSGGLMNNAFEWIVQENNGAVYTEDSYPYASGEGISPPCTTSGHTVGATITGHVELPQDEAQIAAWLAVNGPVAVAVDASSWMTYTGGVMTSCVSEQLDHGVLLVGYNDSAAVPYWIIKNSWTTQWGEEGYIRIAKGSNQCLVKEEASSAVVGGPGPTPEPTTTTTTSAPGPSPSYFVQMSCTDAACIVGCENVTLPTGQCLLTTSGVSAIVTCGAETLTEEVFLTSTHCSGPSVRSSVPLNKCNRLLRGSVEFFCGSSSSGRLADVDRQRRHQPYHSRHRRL
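Detergent-free condition (0.00005% Triton X-100) in acetate buffer pH 5.5 with DTT. 1.5 nM enzyme and compound were pre-mixed 15 min, then 2 uM Z-FR-AMC substrate added; reaction progress from fluorescence change between first and third reads (60 s).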
RE007 growth inh – less growth of the S. pombe RE007 Vpr strain. S. pombe RE007 Vpr strain, BacTiter-Glo ATP luminescence, 24 h; control for the full effect not named in the record. Potency, µM (series often up to 92.2 µM), without a hit: top-dose activity change, negative = less growth. hit rate 0.21% among 360,000; active = well fitted falling curve with a large enough effect; inconclusive = small, poorly fitted or top-dose-only effect; inactive = no such curve, though single readings can be large or run the other way;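 also: % is scaled to controls: 0 for no effect and ±100 for the full control effect; nearly all actives have a fitted effect of over 50% in size; the assay follows cell death caused by Vpr and the record does not say whether a fall means rescue or toxicity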
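Fission yeast strain RE007, carrying one chromosomally integrated HIV-1 vpr copy, was seeded at OD 0.01 in PMG+AL medium with 23 nL pinned compound. After 24 h at 30 °C and 99% humidity, viability was read by BacTiter-Glo luminescence.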
Cruzain inh Det – inhibitors of Trypanosoma cruzi cruzain with detergent; P25779; purified cruzain, Z-FR-AMC fluorescence, 0.01% Triton; Potency, µM, for the others: max response, negative = inhibition, hits mostly inhibitors; hit rate 0.43% among 200,000; AID 1478;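 also: plate controls were neutral wells for no effect and buffer without enzyme for full effect; nearly all actives have a fitted effect of over 40% in size; top concentration of the series not given in the record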
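Cruzain (1.5 nM) preincubated 15 min at RT with compound in 100 mM sodium acetate pH 5.5, 5 mM DTT, 0.01% Triton X-100. Reaction started with 2 uM Z-FR-AMC; AMC fluorescence (ex 360/em 450 nm) change over 60 s gave rate.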
Lassa entry inh – inhibitors of Lassa virus binding or cell entry; Lassa virus pseudotype entry inhibition, cell reporter; control for the full effect not named in the record; Potency, µM (highest dose often 37.9 µM), for inactives: at the top dose activity change, negative = inhibition, hits mostly inhibitors; hit rate 1.2% among 300,000; active means well fitted inhibition curve with a large enough effect; inconclusive means small, poorly fitted or top-dose-only effect, or effect the other way; inactive means flat fitted curve, though single readings scatter; tested in HEK293 cells; also: % is scaled to controls: 0 for no effect and ±100 for the full control effect; nearly all actives have a fitted effect of over 50% in size; luciferase read-out
SARS PLpro yeast – inhibitors of SARS-CoV papain-like protease in yeast; S. cerevisiae expressing SARS-CoV PLpro, growth rescue; control for the full effect not named in the record; Potency, µM (top dose mostly 32.9 µM), inactives show at the highest dose activity, positive = growth rescue; hit rate 0.19% among 330,000; AID 485353; active means well fitted rising curve with a large enough effect; inconclusive means small, poorly fitted or top-dose-only effect; inactive means no such curve, though single readings can be large or run the other way; also: 0% is about no effect; nearly all actives have a fitted effect of over 55% in size; growth read by luminescence after 48 h
NS1 inh – influenza NS1 inhibition | S. cerevisiae slowed by influenza A NS1, growth recovery by OD600 | Potency, µM (highest dose often 46.1 µM), for the others: at the top dose activity, positive = more growth | hit rate 0.4% among 270,000; active means well fitted rising curve with a large enough effect; inconclusive means small, poorly fitted or top-dose-only effect; inactive means no such curve, though single readings can be large or run the other way; also: nearly all actives have a fitted effect of over 50% in size
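Growth recovery, yeast-based: influenza A NS1 expressed in S. cerevisiae causes slow growth, and suppressors are detected by OD600. The parent strain without NS1 is used as positive control.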
StopGo reporter – FMDV 2A StopGo reporter, luciferase signal | hit rate 1.2% among 410,000 | human cells with a luciferase reporter of 2A StopGo recoding; control for the full effect not named in the record | Potency, µM (doses to about 57.9 µM), for the others: at the highest dose signal change, negative = less light | AID 1159524; active = well fitted falling curve with a large enough effect; inconclusive = small, poorly fitted or top-dose-only effect; inactive = no such curve, though single readings can be large or run the other way; tested in HEK293T cells; also: % is scaled to controls: 0 for no effect and ±100 for the full control effect; nearly all actives have a fitted effect of over 45% in size; luciferase light after 4 h
MARV entry inh – inhibitors of Marburg virus binding or cell entry | Marburg virus pseudotyped entry inhibition, cell reporter; control for the full effect not named in the record; about a third of the inactives were read at about 46 µM | Potency, µM (titrated, usually from 37.8 µM), without a hit: at the highest dose activity change, negative = inhibition, usual class: inhibitors | hit rate 1.8% among 300,000; active = well fitted inhibition curve with a large enough effect; inconclusive = small, poorly fitted or top-dose-only effect, or effect the other way; inactive = flat fitted curve, though single readings scatter; tested in HEK293 cells; about a fifth of its hits are not listed in these tables; also: % is scaled to controls: 0 for no effect and ±100 for the full control effect; luciferase read-out
* = called active by the depositor; ? = inconclusive; . = no result given; & = joins results of further samples; [ ] = another dose, or the depositor's remark. Unless noted, calls follow the shape of the dose curve; as a rule, active = well fitted curve in the direction sought with a large enough effect; inconclusive = small, poorly fitted or top-dose-only effect, or another doubt; inactive = no such curve, though single readings can be large; an effect the other way counts as inactive or inconclusive. Potency is read from the fitted curve at half-maximal effect.

SMILES	Cruzain inh noDet	RE007 growth inh	Cruzain inh Det	Lassa entry inh	SARS PLpro yeast	NS1 inh	StopGo reporter	MARV entry inh
Cc1cccc(NC(=O)C2CCN(S(=O)(=O)c3cccc4cccnc34)CC2)c1	9%	11%	-5.4%	.	-7%	-118%	?	.
CCOc1ccccc1CN1CCNC(=O)C1CC(=O)N(C)CCc1ccccn1 (stereo not given)	.	-5%	.	.	-1%	1%	-9%	.
Nc1nc(Nc2ccccc2)n[nH]1	.	-4%	.	.	0%	2%	2%	.
COc1ccc(-c2noc(CN(C(=O)c3ccc(OC(C)=O)cc3)C(C)C)n2)cc1OC	?	-7%	6.6%	?	0%	-7%	-18%	0%
Cc1ccc(CN2CCN(Cc3cn[nH]c3-c3cccc(F)c3)CC2CCO)o1 (stereo not given)	.	13%	.	-1%	0%	4%	4%	?
Cc1ccccc1Cn1c2ccccc2c2cnn(CC(=O)NCCc3ccc(Cl)cc3)c(=O)c21	10%	.	-2.8%	6%[46.1 µM]	.	.	-16%	?
CCc1ccc(Nc2nc(C)cc(C)c2C(N)=O)cc1	.	-4%	.	-4%	3%	-17%	-10%	?
CCN(CC(=O)Nc1ccc(NC(C)=O)cc1)C(=O)Cc1ccc(Cl)c(Cl)c1	.	-5%	.	.	15%	?	?	1%[46.1 µM]
CCCN(CC1COc2ccccc2O1)C(=S)Nc1ccc(C)cc1 (stereo not given)	-4%	1%	-9.1%	0%	-48%	-10%	-7%	?
O=C(Nc1ccccc1C(F)(F)F)c1cc(S(=O)(=O)N2CCOCC2)ccc1F	9%	3%	-1.4%	33%[14.3 µM]	18%	-3%	8%	-8%
CC(NC(=O)COC(=O)C1CCC1)c1ccccc1 (stereo not given)	.	7%	.	5%	1%	.	-10%	-16%[46.1 µM]
CC(C)(C)c1ccc(-c2nnc3sc(-c4ccncc4)nn23)cc1	19%	9%	-2.5%	?	2%	-71%	-5%	-6%
Nc1ccccc1Nc1nc2ccccc2[nH]1	.	4%	.	?	-2%	?	-7%	-6%
CCc1ccc(-n2c(SCc3ccccc3Cl)nc3[nH]ncc3c2=O)cc1	-2%	.	2.2%	-18%[46.1 µM]	.	.	?	.
Cc1ccccc1NC(=S)NC(NC(=O)c1ccco1)C(Cl)(Cl)Cl (stereo not given)	3%	-14%	0.6%	-7%	-11%	6%	-13%	-11%

Quoted at random: 6 entries already listed.
SMILES	Cruzain inh noDet	RE007 growth inh	Cruzain inh Det	Lassa entry inh	SARS PLpro yeast	NS1 inh	StopGo reporter	MARV entry inh
CCN(CC(=O)Nc1ccc(NC(C)=O)cc1)C(=O)Cc1ccc(Cl)c(Cl)c1	.	-5%	.	.	15%	?	?	1%[46.1 µM]
CC(NC(=O)COC(=O)C1CCC1)c1ccccc1 (stereo not given)	.	7%	.	5%	1%	.	-10%	-16%[46.1 µM]
CCOc1ccccc1CN1CCNC(=O)C1CC(=O)N(C)CCc1ccccn1 (stereo not given)	.	-5%	.	.	-1%	1%	-9%	.
Nc1ccccc1Nc1nc2ccccc2[nH]1	.	4%	.	?	-2%	?	-7%	-6%
Cc1ccc(CN2CCN(Cc3cn[nH]c3-c3cccc(F)c3)CC2CCO)o1 (stereo not given)	.	13%	.	-1%	0%	4%	4%	?
CCCN(CC1COc2ccccc2O1)C(=S)Nc1ccc(C)cc1 (stereo not given)	-4%	1%	-9.1%	0%	-48%	-10%	-7%	?

The list goes on:
SMILES	Cruzain inh noDet	RE007 growth inh	Cruzain inh Det	Lassa entry inh	SARS PLpro yeast	NS1 inh	StopGo reporter	MARV entry inh
O=C(Nc1cc([N+](=O)[O-])ccc1F)c1cccs1	0%	-22%	-2.2%	16%	-26%	-24%	-8%	?
COc1ccc(Cl)cc1N(C)C(=O)CCc1nc(-c2ccc(C)cc2)no1	?	8%	-14%	-19%	-35%	-98%	0%	-9%
Cc1cnccc1CNC(=O)C1CCC(=O)N(Cc2ccc(Cl)cc2)C1 (stereo not given)	.	-4%	.	.	-4%	-4%	-12%	.
CCSc1nnc(NC(=O)CSc2nnc(Cc3cccn3C)n2-c2ccc(F)cc2)s1	19%	-10%	-4.1%	-26%	1%	-7%	11%	0%
COc1ccc(-n2c(O)c(C=Nc3ccccc3)c3ccccc3c2=O)cc1	.	-6%	.	?	0%	.	13%	?
COc1ccccc1C(=O)OCC(=O)Nc1ccccc1OC(F)F	.	-17%	.	.	0%	-5%	-1%	.
CC(C)CN(C(=O)CN1CCN(S(=O)(=O)c2ccc3ccccc3c2)CC1)c1c(N)n(CC(C)C)c(=O)[nH]c1=O	12%	-3%	-1.7%	1%	7%	-19%	-12%	17%
COc1ccc(NC(=O)C(c2ccc(OC)cc2)N(Cc2ccco2)C(=O)CC2NC(=O)NC2=O)cc1 (stereo not given)	.	6%	.	3%	0%	.	-2%	3%[46.1 µM]
Cc1ccc2c(c1)N(C(=O)CCC(=O)N1CCC3(CC1)OCCO3)CC(C)O2 (stereo not given)	.	-13%	.	.	0%	-1%	-10%	.
CC(=O)Nc1ccc(NC(=O)CSc2nnc3ccc(-c4cccnc4)nn23)cc1	.	4%	.	5%	-2%	.	-6%	23%[46.1 µM]
COc1ccc(C(=O)N/C(=C\c2ccco2)C(=O)NCCN2CCOCC2)cc1	.	-15%	.	6%	7%	4%	5%	0%[46.1 µM]
Cc1nsc2nc3c(F)c(F)c(F)c(F)c3cc12	.	?	.	?	0%	9%	?	?
CN(C)c1cccc(C(=O)N2CCCC(C(=O)c3cc(F)ccc3F)C2)c1 (stereo not given)	.	-6%	.	-14%	5%	-2%	-8%	-22%[46.1 µM]
Cc1ccc(-n2nnnc2Sc2nc([N+](=O)[O-])nn2C)c(C)c1	.	2%	.	-5%	.	.	-16%	?
CCc1ccc(CN(C(=O)c2cccs2)C2CCS(=O)(=O)C2)cc1 (stereo not given)	.	2%	.	-9%	-1%	3%	-24%	?
O=C(CN(CC1CCCO1)C(=O)CCC(=O)Nc1ccccn1)NCc1ccccc1 (stereo not given)	-6%	-3%	2.6%	?	23%	-1%	-17%	-26%[46.1 µM]
COc1cc(/C=C/C(=O)O)cc(S(=O)(=O)NNC(=O)c2cc(C)oc2C)c1OC	.	5%	.	0%[46.1 µM]	-1%	.	-11%	1%[46.1 µM]
Cc1cc(=O)oc2cc(OC(C(=O)O)c3ccccc3)ccc12 (stereo not given)	.	-4%	.	?	-3%	0%	-1%	11%[46.1 µM]
O=C(COC(=O)COc1cccc2ccccc12)NCC(F)(F)F	.	-3%	.	17%	-2%	.	4%	?
CCc1ccccc1N1C(=O)N(CC(=O)c2ccc(Cl)cc2)c2ccccc2S1(=O)=O	?	.	1.7%	?	.	.	0%	.
Cc1ccc(O)c(NC(=S)NC(=O)c2ccc(-c3ccc(Cl)cc3)o2)c1	.	0%	.	3%	.	.	-8%	?
CC1(C(=O)O)C=CC2(CCCCC2)N1C(=O)c1ccccc1 (stereo not given)	-3%	-13%	1.3%	5%	-6%	7%	-17%	-21%
COc1cc(-c2noc(CSc3nc(-c4ccccc4)cc(=O)[nH]3)n2)cc(OC)c1OC	?	.	0.5%	14%[46.1 µM]	.	.	-9%	.
COc1cccc(-c2nnc(SCC(=O)N3CCOCC3)o2)c1	-7%	-7%	-2.6%	2%	-1%	-4%	22%	11%
COc1ccccc1CNS(=O)(=O)c1ccc2c(c1)N(C(C)=O)CC(C)S2 (stereo not given)	.	1%	.	?	2%	-14%	-5%	?
CCCOc1ccc(/C(O)=C2/C(=O)C(=O)N(CCCn3ccnc3)C2c2cccnc2)cc1 (stereo not given)	.	-17%	.	0%[46.1 µM]	-2%	-46%	11%	-3%[46.1 µM]
CC(C)C(=O)NC(=S)/C=C1/N(C)c2ccccc2C1(C)C	.	-22%	.	-18%	4%	.	-29%	-30%
COc1ccc(S(=O)(=O)Nc2c(C(=O)O)[nH]c3ccc(OC)cc23)c(OC)c1	.	-19%	.	.	5%	5%	33%[activator]	.
COc1ccc(N2CCN(c3ncnc4c3nnn4Cc3ccccc3Cl)CC2)cc1	3%	6%	0.8%	3%	2%	24%	-30%	26%
COc1ccc(S(=O)(=O)N2CCN(c3ccccc3OC)CC2)cc1C(=O)N1CCCCC1	.	8%	.	-24%	2%	-6%	?	-15%[46.1 µM]
CC1CCN(CC(O)Cn2c3ccccc3c3ccccc32)CC1 (stereo not given)	.	-10%	.	-24%	19%	4%	-8%	?
CN(N)C(=S)Nc1ccc(F)cc1	.	-7%	.	20%[46.1 µM]	0%	.	-17%	?
CCCCn1c(N)c(N(CCOC)C(=O)c2ccc(S(=O)(=O)N3CCC(C)CC3)cc2)c(=O)[nH]c1=O	.	17%	.	-3%	1%	.	-1%	18%[46.1 µM]
Cc1nn(-c2ccc(N3CCOCC3)nn2)c(C)c1CCC(=O)NCc1ccccc1F	0%	-9%	0.4%	10%[46.1 µM]	16%	19%	4%&8%	.
C=CCNC(=O)C1CC(=O)N(c2ccc(OCC(=O)NCc3ccccc3)cc2)C1 (stereo not given)	-3%	6%	-0.5%	25%	-1%	2%	-11%	?
CC(=O)N1CCc2cc(Br)cc(S(=O)(=O)CCC(=O)Nc3ccc(C)cc3Cl)c21	0%	.	-2.5%	?	.	.	-16%	-4%[46.1 µM]
CCn1cc(C(=O)N[C@@H](C)C(=O)NCCCN2CCOCC2)c(=O)c2cc3c(cc21)OCO3	.	-4%	.	4%[46.1 µM]	.	11%	-10%	?
CCOC(=O)C1CCN(C(=O)Nc2cc(Cl)cc(Cl)c2)CC1	.	4%	.	-7%	-10%	-80%	-7%	-2%[46.1 µM]
O=C(NC(=O)c1cnccc1C(F)(F)F)Nc1ccccc1	.	-1%	.	14%	-2%	-4%	3%	6%[46.1 µM]
CC(=O)CC(c1ccccc1)S(=O)(=O)c1ccc([N+](=O)[O-])cc1 (stereo not given)	.	-2%	.	?	0%	0%	-8%	-5%[46.1 µM]
